# PABP FP inh – PABP poly(A) RNA binding inhibitors, primary screen, biochemical, fluorescence polarization, uHTS. inhibition, % at 35 µM. 290,000 compounds, 1% hits. Polyadenylate-binding protein 1 (Homo sapiens), P11940;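 active = 50% or more with normal probe brightness, or confirmed in later tests; inconclusive = above 50% with abnormal brightness, or retests that disagree; inactive = below 50% or failed in later tests; about a fifth of its hits are not listed in these tables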;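 also: calls also rest on retests at 20 µM and on dose response follow-up; controls were probe without protein and protein plus probe with vehicle; some compounds called inactive have numbers as strong as hits; many hits fall short of the cut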
# Target sequence (P11940 whole entry, looked up): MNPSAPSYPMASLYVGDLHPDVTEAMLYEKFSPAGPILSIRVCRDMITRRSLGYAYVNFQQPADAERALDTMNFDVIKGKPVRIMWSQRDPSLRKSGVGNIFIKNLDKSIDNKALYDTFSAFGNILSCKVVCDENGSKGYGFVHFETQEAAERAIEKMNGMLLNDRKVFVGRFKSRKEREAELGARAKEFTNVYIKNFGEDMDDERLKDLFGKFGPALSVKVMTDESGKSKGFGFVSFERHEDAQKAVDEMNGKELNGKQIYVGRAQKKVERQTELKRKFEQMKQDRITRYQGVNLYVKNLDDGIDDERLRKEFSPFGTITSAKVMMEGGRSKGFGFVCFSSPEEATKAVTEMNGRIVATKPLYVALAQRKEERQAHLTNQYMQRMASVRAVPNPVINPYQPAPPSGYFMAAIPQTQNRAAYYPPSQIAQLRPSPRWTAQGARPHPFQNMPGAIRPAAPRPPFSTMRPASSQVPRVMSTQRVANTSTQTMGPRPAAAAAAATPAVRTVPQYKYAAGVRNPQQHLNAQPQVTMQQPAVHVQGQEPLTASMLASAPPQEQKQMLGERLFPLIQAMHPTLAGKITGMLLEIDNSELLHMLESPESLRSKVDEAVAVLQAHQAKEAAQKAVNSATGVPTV
# Env fusion inh – inhibitors of HIV-1 Env-driven cell-cell fusion, primary screen, HeLa-JRFL effector, CEM21 target cells, luciferase; inhibition, % at 12.3 µM; AID 651610, 2012; 360,000 compounds, 1.1% hits;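 active = mean replicate inhibition score of at least 50 and every replicate individually at or above 50; inconclusive = only one of the two criteria met; inactive = mean below 50 and not all replicates reaching 50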;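 also: 0% = plate neutral controls and 100% = maraviroc near 300 nM; one replicate is shown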
# MT1-MMP act inh – blockers of MT1-MMP proenzyme processing, primary screen, HT1080 RFP-PRO-GFP cells, GFP/RFP fluorescence; GFP/RFP ratio fluorescence, overnight; percent of plate control window, DMSO zero; 360,000 compounds, 0.061% hits; Matrix metalloproteinase-14 (Homo sapiens), P50281; GFP/RFP ratio change, % at 20 µM;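 active = GFP/RFP ratio change of at least 30% with cell ATP level not reduced by more than half and red fluorescence within 50% of control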; also: strong numbers were not always called active
#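 Material: RFP-PRO-GFP reporter HT1080 cells. Dosing: single-point 20 µM compound, 1% DMSO. Controls: DMSO and RFP-L50D-GFP cell wells. Timing: cells overnight before dosing, compound overnight, 37 °C, 5% CO2. Measure: GFP/RFP fluorescence ratio.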
# Yeast UUG start – modulators of yeast start codon fidelity, primary screen, whole organism, S. cerevisiae, single point, plate reader; S. cerevisiae UUG-firefly luciferase reporter, luminescence/redox ratio; activity score, % at 18.7 µM; 350,000 compounds, 0.13% hits;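 active = replicate mean at a twofold rise or more, about +100% in these data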;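 also: firefly luciferase made from a UUG start codon reports start codon fidelity; reporter light over untreated wells divided by growth signal over untreated wells; some hits fall short of that in this replicate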
# CSC inhib – cancer stem cell viability inhibitors, primary screen, luminescence. 300,000 compounds, 1.1% hits. inhibition, % at 7.5 µM. cancer stem cell-like cells viability;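 active = mean at 75% or more and at least half the replicates too; inconclusive = mean and replicates disagree; tested in HMLE shEcad cells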;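 also: 0% = median of negative and 100% = median of positive control wells; the first replicate is given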
# Rce1 inh – yeast Rce1p protease inhibitors, primary screen, biochemical, fluorescence, cell-free homogeneous; CAAX prenyl protease 2 (Saccharomyces cerevisiae (strain ATCC 204508 / S288c)), Q03530; yeast membranes, quenched prenylated peptide cleavage fluorescence; calls only; 290,000 compounds, 0.27% hits; AID 2563, 2010;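 active = fall in fluorescence gain of 50% or more versus controls, with final raw signal at or below 3038400; inconclusive = same 50% fall but final raw signal above 3038400; inactive = fall in fluorescence gain under 50%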;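 also: plate controls were neutral control wells for no effect and wells lacking membranes for full effect; tested at 10 µM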
# Target sequence (Q03530 whole entry, looked up): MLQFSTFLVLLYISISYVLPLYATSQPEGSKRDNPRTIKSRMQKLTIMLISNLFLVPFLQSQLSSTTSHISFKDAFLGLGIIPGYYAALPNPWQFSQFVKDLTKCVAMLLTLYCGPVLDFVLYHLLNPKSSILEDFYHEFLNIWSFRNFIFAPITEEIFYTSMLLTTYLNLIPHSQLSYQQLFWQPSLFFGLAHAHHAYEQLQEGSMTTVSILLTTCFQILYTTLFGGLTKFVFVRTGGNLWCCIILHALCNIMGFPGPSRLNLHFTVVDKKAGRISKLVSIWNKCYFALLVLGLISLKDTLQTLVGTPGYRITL
# eIF4H inh – human eIF4H binding inhibitors, primary screen, translation initiation inhibitor project, biochemical, uHTS, fluorescence polarization; eIF4H fluorescence polarization binding assay; AID 2012, 2009; inhibition, % at 35 µM; 290,000 compounds, 0.94% hits;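 active = 50% or more with normal probe brightness, or confirmed in later tests; inconclusive = above 50% with abnormal brightness, or retests that disagree; inactive = below 50% or failed in later tests; about a fifth of its hits are not listed in these tables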;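 also: calls also rest on retests at 20 µM and on dose response follow-up; 0% = protein and probe with vehicle and 100% = probe without protein; strong numbers were not always called active; many hits fall short of the cut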
# MT1-MMP act inh RFP – recorded beside MT1-MMP act inh, whose call it bears; RFP signal change, %; measured here: RFP expression control read;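 0 = vehicle wells; hits needed this value within 50% of zero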
# The depositor's hits bear a star; i = inactive; u = inconclusive; x = no result given; + = active, no number; & = joins results of further samples. The list is partial; count on the stated rates, not on these rows.
structure,PABP FP inh,Env fusion inh,MT1-MMP act inh,MT1-MMP act inh RFP,Yeast UUG start,CSC inhib,Rce1 inh,eIF4H inh
Cn1cnnc1SCC(=O)Nc1cc(S(=O)(=O)N2CCCCCC2)ccc1Cl,-6,5,0,1,4,-2,i,-7
Cc1ccc(C2=C/C(=C/c3cccs3)C(=O)O2)cc1,1,-7,-2,4,-19,-4,i,-4
COc1ccccc1C(=O)Nc1ccnn1C1CCN(Cc2cnn(C)c2C)CC1,2,-11,1,6,-7,-2,i,-4
NCCc1c(-c2ccccc2)n(-c2ccccc2)c2ccccc12,-3,16,1,-3,x,x,i,-8
Cc1noc(C)c1C(=O)OCC(=O)N(C)C1CCS(=O)(=O)C1 (stereo not drawn),0,-8,1,0,x,10,i,1
CC(C)Nc1cc(C(C)(C)C)nc2c(-c3ccccc3)cnn12,11,9,1,3,x,49,i,-6
CN(CC(=O)NCc1ccccn1)S(=O)(=O)c1ccc2ccccc2c1,3,-17,-2,0,-5,-8,i,-4
CC(=O)NC(CC(=O)N1CCN(C(C)=O)CC1)c1ccccc1 (stereo not drawn),5,4,-1,5,0,-9,i,1
COc1ccc(NC(=O)c2ccccc2Oc2ccccc2)c(OC)c1,6,2,0,-5,-11,55,i,-9
CCCCn1c(N)c(N(CC(C)C)C(=O)c2cccc(S(=O)(=O)N(CC)c3ccccc3)c2)c(=O)[nH]c1=O,x,u,-5,-4,-12,x,x,x
O=C(c1ccc(COc2ccc3c(c2)CCC3)o1)N1CCN(c2ccccc2)CC1,x,x,2,-6,-12,30,i,x
COc1cc(CNCc2ccccc2)cc(Cl)c1OC,6,10,7,8,-14,-2,i,-10
COc1ccccc1NC(=O)c1sc2nc(N3CCOCC3)c3c(c2c1N)CCCC3,16,-33,1,-4,-10,-18,i,-4
c1ccc(COc2ccc(CNCc3cccs3)cc2)cc1,-8,x,3,0,x,45,i,-3
CN(CP(=O)(O)CN(C)S(C)(=O)=O)S(C)(=O)=O,10,x,-1,0,-16,10,i,-2
ClCc1cc2ccccc2nc1Cl,11,1,-3,1,x,-7,i,-1
C[C@@H](NC(=O)c1nc[nH]c1C(=O)N[C@@H](CCCCNC(=O)OC(C)(C)C)C(=O)OC(C)(C)C)c1ccccc1,1,-33,-27,-30,-10,-10,i,8
CC1CC(C)CN(CCCNC(=O)c2cc3c(s2)-c2ccccc2OC3)C1 (stereo not drawn),x,8,3,-2,7,28,u,x
CC1(c2ccc(F)cc2)OC(=O)c2c1ccc1ccccc21 (stereo not drawn),x,-6,3,-1,-15,x,x,x
CN(CCO)c1cnccn1,4,3,4,7,x,x,i,0
CN(C)c1ccc(NC(=O)CN2C(=O)CC(c3ccccc3)=Nc3ccccc32)cc1,1,-82,6,-4,-15,-5,i,-1
CCOC(=O)C(C)/C(C)=N/NC(=O)CCC(=O)Nc1cc(C)ccc1C (stereo not drawn),2,5,-1,1,-5,-9,i,-4
CN(C)C(=O)CSc1nnc(Cc2ccc3c(c2)OCO3)o1,-1,-4,2,6,x,-10,i,-3
CCN1/C(=C/C=C/c2oc3ccc4ccccc4c3[n+]2CC)Oc2ccc3ccccc3c21,u,x,x,x,x,20,i,u
CCOC(=O)N1CCN(S(=O)(=O)c2ccc(C(=O)N(CCCN(C)C)c3nc4ccc(OC)cc4s3)cc2)CC1,-6,2,2,3,-3,3,i,3
CCOC(=O)CSc1nnc(-c2ccc(S(=O)(=O)N3CCOCC3)cc2)n1-c1ccccc1,4,-69,-1,1,x,-2,i,-6
CC1(OC(=O)C2CCCC2)C(=O)C=C2C=C3CCCCN3C=C2C1=O (stereo not drawn),u,x,-1,5,19,2,i,u
COC(=O)c1nnn(-c2nonc2N)c1CSCCO,-5,x,2,5,-12,-4,i,-6
Cn1cc(CN2CCC(C(=O)Nc3cccc(-c4cccc(F)c4)c3)CC2)cn1,-4,-21,-1,3,10,-18,i,-8
CCOC(=O)C1=CNS(=O)(=O)NC1c1ccc(C[C@H](NC(=O)CNC(=O)CCc2ccccc2)C(N)=O)cc1 (stereo partly drawn),x,5,3,5,-16,x,x,x
COCCn1c(C)cc2c(c1=O)C(c1ccco1)C(C#N)=C(N)O2 (stereo not drawn),4,-70,1,6,0,-8,i,-1
O=C(NCCCn1ccnc1)c1cc(-c2cccs2)on1,2,i,11,11,-5,24,i,-9
Cc1cccc(C(=O)Oc2ccc(/C=N/NC(=O)c3ccccc3O)cc2)c1,-2,x,20,3,-14,-4,i,3
CCN(CC)c1ccc(S(=O)(=O)N2CCOCC2)cc1NC(=O)Nc1ccccc1,x,-30,3,1,-16,x,x,x
CCC(C)(C)NC(=O)C(c1cccn1C)N(C(=O)Cn1nnc2ccccc21)c1ccc(OC)cc1OC (stereo not drawn),-9,-186,-5,0,9,x,x,13
COC(=O)CC(c1ccc(OC)c(OC)c1)c1ccc(OC)c(OC)c1,-2,-1,2,3,-11,-2,i,0
COCCN(C(=S)Nc1ccccc1OC)C(C)c1cccs1 (stereo not drawn),18,-7,-1,4,-14,-12,i,-11
COc1ccc(-n2c(SCC(=O)NCc3cccs3)nc3[nH]ncc3c2=O)cc1,-4,-10,2,3,x,-16,i,-8
COc1cccc(C(=O)Nc2nnc(SCC(=O)NC3CCCC3)s2)c1,-1,-12,3,4,-11,-6,+,-3
O/N=C/c1cccn1-c1ccc(O)cc1,-6,-24,-6,-1,-25,-7,x,1
CCOc1ccc(OCCSc2nnnn2C2CCCCC2)cc1,-5,x,0,3,-14,-5,i,3
C(=N/Nc1cc(N2CCOCC2)nc(N2CCOCC2)n1)/c1ccccc1,6,23,-2,-9,x,27,i,11
NNc1ccc(S(=O)(=O)N2CCCCC2)cn1,-8,-33,3,11,x,-1,i,-12
COc1ccc2nc(NC(=O)c3ccc(F)cc3)sc2c1,-7,-123,4,-2,-4,-6,i,-6
CC(=O)Nc1ccc2cnn(C(C)=O)c2c1,x,4,-2,0,-10,x,x,x
OC(COc1ccc(OCc2ccccc2)cc1)CN1CCCCC1 (stereo not drawn),2,x,4,3,-26,31,i,0
COC(=O)C(NC(=O)c1ccccc1C)(Nc1ncc(S(=O)(=O)c2ccc([N+](=O)[O-])cc2)s1)C(F)(F)F (stereo not drawn),-4,u,-14,-16,-3,-6,i,-4
CCN(CC)CCCNC(=O)c1cc2c(-c3ccc(Cl)cc3)nn(C)c2s1,-4,0,-2,13,-17,98*,u,-3
COC(=O)c1ccccc1NC(=S)N(Cc1ccc2c(c1)OCO2)Cc1cc2cccc(C)c2[nH]c1=O,-3,-2,-7,-10,x,-1,i,4
Cc1cccc(C)c1NC(=O)CCc1nnc2ccc(N3CCCC3)nn12,1,0,-4,-1,-15,-7,i,-9
COc1ccc(C(=O)NCc2ccc(N3CCN(C(=O)OC(C)(C)C)CC3)cc2)cc1,-1,13,-6,-11,5,-8,i,-4
COc1ccc(CCNc2ccc(C(CC(N)=O)NC(=O)c3ccccc3)cc2[N+](=O)[O-])cc1 (stereo not drawn),6,25,-1,-7,-16,-11,i,35
CCOC(=O)c1c(C)[nH]c(C(=O)CN2C(=O)NC(C)(CC(C)C)C2=O)c1C (stereo not drawn),-4,-7,4,5,x,x,i,-1
COc1ccc(-c2nc(CN3CCCC(C(=O)NC4CCCC4)C3)c(C)o2)cc1 (stereo not drawn),-1,10,8,2,-2,-11,x,-9
Cc1ccc(NC(=O)CCSc2nnc(C)s2)cc1,45,-28,0,-1,-13,-3,i,-1
Cc1ccc(S(=O)(=O)N2CCCCC2)cc1NC(=O)COC(=O)c1cc[n+]([O-])cc1,2,-7,3,2,x,13,i,-5

# Carrying on.
structure,PABP FP inh,Env fusion inh,MT1-MMP act inh,MT1-MMP act inh RFP,Yeast UUG start,CSC inhib,Rce1 inh,eIF4H inh
O=C(NNC(=O)c1ccccc1-n1cccc1)c1ccc(F)cc1,-6,-12,1,0,x,3,i,6
COC(=O)c1c(C(=O)OC)c(-c2cccc(F)c2)n2c1CS(=O)C2 (stereo not drawn),9,22,-1,1,-7,4,i,9
FC(F)(F)c1cc(-c2ccccc2)nc2ncnn12,-3,x,-2,-1,-8,-2,i,6
O=C(COC(=O)[C@@H]1CCCN1S(=O)(=O)c1ccc(Cl)cc1)NC1CCS(=O)(=O)C1 (stereo partly drawn),x,0,-3,0,-8,5,i,x
COc1ccc(S(=O)(=O)N(C)C[C@H]2Oc3ccc(NC(=O)Cc4ccccc4)cc3C(=O)N([C@H](C)CO)C[C@@H]2C)cc1,x,-17,-1,2,4&3,x,x,x
CCC1SC2=NC(C)=C(C(=O)OCC(C)C)C(/C=C/c3ccccc3OC)N2C1=O (stereo not drawn),-7,-44,-10,-5,-11,3,i,-8
Cc1noc(NS(=O)(=O)c2ccc(NC(=O)CSc3nnc(-c4ccccc4)n3C3CCCCC3)cc2)c1C,11,x,-7,-4,-18,-7,i,5
CCn1c(SCC(=O)O)nnc1-c1ccc(S(=O)(=O)N2CCCC2)cc1,1,5,-4,-4,2,-16,i,-2

# Reformatted with two lines to a compound: four of the compounds above.
# Every second line gives: PABP FP inh, Env fusion inh, MT1-MMP act inh, MT1-MMP act inh RFP, Yeast UUG start, CSC inhib, Rce1 inh, eIF4H inh
CCCCn1c(N)c(N(CC(C)C)C(=O)c2cccc(S(=O)(=O)N(CC)c3ccccc3)c2)c(=O)[nH]c1=O
  x, u, -5, -4, -12, x, x, x
COc1ccc(S(=O)(=O)N(C)C[C@H]2Oc3ccc(NC(=O)Cc4ccccc4)cc3C(=O)N([C@H](C)CO)C[C@@H]2C)cc1
  x, -17, -1, 2, 4&3, x, x, x
COc1cc(CNCc2ccccc2)cc(Cl)c1OC
  6, 10, 7, 8, -14, -2, i, -10
CCOC(=O)c1c(C)[nH]c(C(=O)CN2C(=O)NC(C)(CC(C)C)C2=O)c1C (stereo not drawn)
  -4, -7, 4, 5, x, x, i, -1

# Carrying on:
structure,PABP FP inh,Env fusion inh,MT1-MMP act inh,MT1-MMP act inh RFP,Yeast UUG start,CSC inhib,Rce1 inh,eIF4H inh
CC1CCN(C(=O)c2cc(S(=O)(=O)N3CCOCC3)ccc2N2CCCC2)CC1,x,6,5,1,-38,x,x,x
CCCc1cc2c(cc1NC(=O)c1ccccc1F)OCO2,-5,x,-2,0,x,3,i,-5
CCN(Cc1cn2cccnc2n1)C1CCCCC1,-6,3,1,2,1,-12,i,5
CCCn1c(N)c(C(=O)CSc2n[nH]c(-c3ccc(C)cc3)n2)c(=O)[nH]c1=O,x,11,-3,-3,-9,-5,i,x
O=C(CN1CCSCC1)N/N=C/c1ccc(F)cc1,0,x,2,-2,0,-1,i,2
CCOC(=O)CC1COCCN1C(=O)CCc1nnc(-c2ccsc2)o1 (stereo not drawn),7,-7,6,5,x,4,i,4
COc1ccc(N2CCN(C(=O)c3cc(=O)[nH]c4ccccc34)CC2)cc1,-8,7,1,1,x,4,i,-4
S=C(NCc1ccco1)Nc1cc(Cl)c(Cl)cc1Cl,-1,18,0,-3,-24,-7,i,-7
Cc1cc2cc(CNC(=O)Cc3cccs3)ccc2n1C,32,x,42,51,-6,5,i,40

# Bioassay records (PubChem)
